Compound activity as filed in PubChem BioAssay.
KCNQ2 inh – KCNQ2 channel blockers in CHO-K1 cells – cell-based, FluxOR thallium flux, B-score, primary screen (AID 2156); O88943; 20 min; hits give low values; only compounds with negative scores are shown here; some inactives read as strong as hits; B-score at 10 µM; actives 1.1% (n = 310,000);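 active means fluorescence ratio B-score at most minus 3 library SDs, with starting brightness B-score within 2 library SDs, cut at about -5.5 in these data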
Target sequence (O88943 whole entry, looked up): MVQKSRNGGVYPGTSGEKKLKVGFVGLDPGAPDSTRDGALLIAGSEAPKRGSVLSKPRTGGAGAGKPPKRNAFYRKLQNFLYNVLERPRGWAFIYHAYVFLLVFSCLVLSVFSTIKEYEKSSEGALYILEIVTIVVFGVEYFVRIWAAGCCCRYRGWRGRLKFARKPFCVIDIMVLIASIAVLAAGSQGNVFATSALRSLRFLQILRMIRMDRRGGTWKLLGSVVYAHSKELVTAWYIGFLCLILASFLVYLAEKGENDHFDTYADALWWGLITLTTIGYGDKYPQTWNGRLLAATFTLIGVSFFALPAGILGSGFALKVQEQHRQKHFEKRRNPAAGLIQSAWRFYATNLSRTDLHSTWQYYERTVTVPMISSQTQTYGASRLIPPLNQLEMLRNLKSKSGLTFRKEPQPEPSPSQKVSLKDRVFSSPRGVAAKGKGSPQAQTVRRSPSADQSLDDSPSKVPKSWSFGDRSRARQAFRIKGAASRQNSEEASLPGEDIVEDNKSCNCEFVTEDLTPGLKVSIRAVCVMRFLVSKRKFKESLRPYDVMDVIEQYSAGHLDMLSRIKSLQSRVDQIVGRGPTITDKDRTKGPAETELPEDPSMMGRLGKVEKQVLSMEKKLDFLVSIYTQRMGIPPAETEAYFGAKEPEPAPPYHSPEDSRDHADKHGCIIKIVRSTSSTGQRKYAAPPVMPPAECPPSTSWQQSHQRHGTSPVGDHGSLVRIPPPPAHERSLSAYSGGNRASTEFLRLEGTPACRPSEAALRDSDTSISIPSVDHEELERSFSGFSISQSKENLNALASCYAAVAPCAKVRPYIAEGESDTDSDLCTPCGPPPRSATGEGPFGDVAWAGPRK
KCNQ2 inh baseline – second read-out of KCNQ2 inh, no call of its own (marks repeat the call); B-score; measured here: initial fluorescence intensity artifact check;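 brightness before thallium and not channel activity; 0 = typical well and far values either way flag optical interference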
* hit, by the source's call; i = inactive.

KCNQ2 inh | KCNQ2 inh baseline | SMILES
i | -0.87 | Cc1cc2c(N=NC(=O)C3CC3c3ccccc3)c(O)[nH]c2cc1Br (configuration not stated)
i | 0.72 | O=C(CS(=O)(=O)c1cn(Cc2ccc(F)cc2)c2ccccc12)N1CCCCC1
i | 1.3 | Cn1c(Cc2csc(N)n2)nnc1SCC(=O)NC1CCCCC1
i | -2.3 | CC(C)c1ccc(NC(=O)CSc2nc3ccccc3nc2N2CCCC2)cc1
i | -1.4 | O=C(c1ccc(S(=O)(=O)N2CCOCC2)cc1)N1CCN(c2ccccc2F)CC1
i | -0.71 | CC(=O)c1ccc(Nc2c3c(nc4ccccc24)CCCC3)cc1
i | 0.32 | COc1ccccc1-n1c(-c2cn(C)nc2C)n[nH]c1=S
i | -1.2 | CCOC(=O)C1(CCCc2ccccc2)CCN(C(=O)c2cnc(C)cn2)CC1
i | 0.24 | CCOc1ccc(/C=N/n2c(C3CCCCC3)n[nH]c2=S)cc1
i | 0.01 | O=C(C1CC1)N1CCN(c2ccc(F)cc2)CC1
i | -1.9 | CC(=O)Nc1cccc(OCCCNC(=O)c2ccc(F)cc2)c1
i | -0.7 | CCOC(=O)C1=C(C)N=C2SC(CC)C(=O)N2C1c1cccc(F)c1 (configuration not stated)
i | -1.7 | CCNS(=O)(=O)c1ccc(CCC(=O)NCc2cccnc2)cc1
i | -0.39 | COc1ccc2[nH]c3nc(SCC(=O)Nc4ccc5c(c4)OCO5)nnc3c2c1
i | 0.77 | O=C(NCCc1ccccc1)c1nc2ncccn2n1
i | 0.19 | COc1cccc(C(=O)OC2CCCN(C)C2)c1 (configuration not stated)
i | -1.1 | O=C(O)CCCCCN1C(=O)/C(=C\c2ccc(-c3ccc(Cl)cc3)o2)SC1=S
i | 0.17 | NS(=O)(=O)c1ccc(CCNS(=O)(=O)c2ccc(Cl)nc2)cc1
i | -0.02 | COc1ccccc1Nc1nc(N)nc(CSC(=S)N2CCOCC2)n1
i | -0.93 | CCOc1ccc(-c2nnc(NC(=O)C3CCCC3)o2)cc1
i | 2.2 | Cn1c(/C(C#N)=C(\O)c2ccc(Br)s2)nc2ccccc21
i | 0.95 | CN(Cc1ccccc1)S(=O)(=O)CCNC(=O)c1ccc2c(c1)OCO2
i | -2.6 | O=C(/C=C/c1ccc(O)c(O)c1)c1ccc(S(=O)(=O)N2CCCCCC2)cc1
i | -1.9 | Cc1ccc(S(=O)(=O)N(CC(=O)NCc2ccccc2Cl)C(=O)N2CCN(C)CC2)cc1
i | 0.12 | Cc1cc(/C=C(\C#N)C(=O)Nc2ccccc2F)c(C)[nH]1
i | -0.65 | COCCSc1nnc(NC(=O)C2CC(=O)N(c3ccc(OC)cc3)C2)s1 (configuration not stated)
i | -1.6 | COc1ccc(OCc2nc(N)nc(Nc3ccc(C)cc3)n2)cc1
i | -0.17 | CCOC(=O)c1c(C)[nH]c(C(=O)COC(=O)/C=C/c2cccc(OC)c2OC)c1C
i | -0.54 | CCN(CC)C(NC(=O)Cc1ccccc1)C(Cl)(Cl)Cl (configuration not stated)
i | -0.94 | CCNc1nc(NC(C)C)nc(ON=C(C)C)n1
i | 1.2 | O=C(Nc1ccc(F)cc1)C1CCC(CNc2c(N3CCCCC3)c(=O)c2=O)CC1 (configuration not stated)
i | -2.9 | CCCCN(C(=O)NC(=O)C1=C(N2CCOCC2)/C(=C/c2ccccc2)CC1)S(C)(=O)=O
i | -2 | Cc1cc(N2CCN(c3ccccc3Cl)CC2)n2cc(-c3ccccc3)nc2n1
i | 2 | CC1(C(=O)NCCc2c[nH]c3ccccc23)C=CCN1C(=O)c1ccccc1 (configuration not stated)
i | 1.6 | S=C(NCCSCc1ccccc1Cl)Nc1ccccc1
i | -0.21 | O=C(NCCc1ccccc1)C(c1ccccc1)N(C(=O)c1csnn1)C1CC1 (configuration not stated)
-5.6* | 0.71* | Cc1cc(N/N=C2\CC(C)CC(C)(C)C2)nc2ccccc12 (configuration not stated)
i | -0.31 | COC(=O)Cc1ccc(NC(=S)NCCSc2ccc(C)cc2)cc1
i | 0.23 | CCOC(=O)c1nnn(-c2nonc2-n2cccc2)c1CN1CCC(C)CC1
i | 0.53 | CCOc1ccc(-c2nn(-c3ccccc3)cc2/C=C2\SC(=S)N(Cc3ccco3)C2=O)cc1
i | -0.48 | Cc1c(Br)c([N+](=O)[O-])nn1CC(=O)Nc1sc2c(c1C(=O)OC(C)C)CCC(C)C2 (configuration not stated)
i | 0.01 | Cc1cc(C)c2c3c(sc2n1)C(c1ccccc1)C(C#N)=C(N)O3 (configuration not stated)
i | 0.03 | CCCOc1ccc(N2C(=O)CC(N(Cc3ccccc3)N=O)C2=O)cc1 (configuration not stated)
i | -0.37 | CCN(CC(=O)NCc1cccs1)S(=O)(=O)c1ccc(F)cc1
i | 0.76 | O=C(CN1CCN(S(=O)(=O)N2CCOCC2)CC1)Nc1cc(Cl)cc(Cl)c1
i | -0.26 | Cc1ccccc1NC(=S)Nc1cccc([N+](=O)[O-])c1
i | -0.05 | O=C(CSc1nc2c([nH]c3ccccc32)c(=O)n1-c1ccc(F)cc1)NCc1ccco1
i | -1.1 | O=C(Cc1ccc(Br)cc1)NNC(=O)Nc1ccc(Cl)cc1
i | -0.12 | O=C(NC1CCCc2ccccc21)C1CCN(S(=O)(=O)N2CCCCCC2)CC1 (configuration not stated)
i | 0.37 | Fc1ccc(-c2nn3c(C4COc5ccccc5O4)nnc3s2)cc1 (configuration not stated)
i | 0.75 | CCCc1ccc2oc(C(=O)N(Cc3ccncc3)CC3CCCO3)c(C)c2c1 (configuration not stated)
i | -2.3 | CCOC(=O)c1cccc(NC(=O)CC2Oc3ccccc3NC2=O)c1 (configuration not stated)
i | -0.94 | COc1ccc(NC(=O)CSc2nnc(CN3CCOCC3)n2-c2ccccc2)cc1Cl
i | -1.1 | Cc1onc(-c2c(Cl)cccc2Cl)c1C(=O)N(C)Cc1ccccc1
i | 2.6 | O=C1c2ccccc2C(=O)N1CCCn1ccnc1
i | 0.48 | FC(F)Oc1ccc(NC(=S)Nc2ccc3cn[nH]c3c2)cc1
i | 1.1 | COc1ccc(N2C(=O)CC(Cc3ccccc3)C2=O)cc1 (configuration not stated)
i | -0.22 | CC(C)COc1cccc(-c2cc(C(=O)N/N=C/c3ccncc3)c3ccccc3n2)c1
i | -0.58 | Cc1cccc(NC(=O)c2ccc(S(=O)(=O)N3CCCCCC3)cc2)n1
i | 1.2 | Cc1ccc(-c2cc(Cc3cccs3)c(=O)[nH]n2)cc1

The final 3 compounds of the section above are carried over, then new ones follow:
KCNQ2 inh | KCNQ2 inh baseline | SMILES
i | -0.22 | CC(C)COc1cccc(-c2cc(C(=O)N/N=C/c3ccncc3)c3ccccc3n2)c1
i | -0.58 | Cc1cccc(NC(=O)c2ccc(S(=O)(=O)N3CCCCCC3)cc2)n1
i | 1.2 | Cc1ccc(-c2cc(Cc3cccs3)c(=O)[nH]n2)cc1
i | 0.18 | CC1OC23CCCCC2C(C#N)(C(=N)O3)C1(C#N)C#N (configuration not stated)
i | 1 | COc1ccc(N2CCN(C(=O)Cn3cnc4c(cnn4-c4ccccc4)c3=O)CC2)cc1
i | 0.2 | CCCCCCCNC1=CC(=O)CC(c2ccccc2)C1 (configuration not stated)
i | 2 | Cc1cc(C)cc(-c2nnc(SCC(=O)NCc3cccs3)o2)c1
i | 0.26 | O=C(NCc1ccccn1)c1ccc(Cl)cc1Cl
i | -0.19 | COc1ccc(/C=N/n2c(-c3n[nH]c4c3CCC4)n[nH]c2=S)c(OC)c1OC
i | -0.82 | Cc1cc(NC(=O)c2cnn3cccnc23)n(-c2ccccc2)n1
i | 0.21 | Cn1c(SCC(=O)OCc2ccccc2)nnc1-c1ccco1
i | -0.27 | O=C1N=C(N2CCN(c3ccccc3)CC2)S/C1=C/c1ccco1
i | -0.57 | O=C(Nc1ccccc1Br)c1cc[n+]([O-])cc1
i | -0.9 | COc1ccccc1CCNC(=O)c1cc(-c2ccccn2)nc2ccc(Br)cc12
i | 2.1 | CC(C)(C)OC(=O)N1CCOCCOCCN(C(=O)OC(C)(C)C)CCOCC1
i | -0.22 | CCn1c(COc2ccccc2)nnc1SCC(=O)Nc1cc(OC)ccc1OC
i | 2.2 | O=C(c1ccccc1)C1CN(Cc2ccccc2)CCC1(O)c1ccccc1 (configuration not stated)
i | -0.04 | Cc1cccc(C)c1Oc1nc(-c2ccccc2)ncc1S(=O)(=O)c1ccccc1
i | -0.31 | Cc1ccc(NC(=O)c2sc3ncn(CC(=O)N4CCN(c5ccccn5)CC4)c(=O)c3c2C)cc1F
i | -1.7 | C(#Cc1ccccc1)C[N+]1(CC#Cc2cccc3ccccc23)CCOCC1
i | 0.72 | COc1ccc(NC(=O)c2ccco2)cc1N
i | -0.38 | CCc1ccc(NC(=O)C/C(C)=N/NC(=O)OCc2ccc(OC)cc2)cc1
i | -0.36 | Cc1ccc(N(C(=O)c2ccc3c(c2)OCO3)C2C=CS(=O)(=O)C2)cc1 (configuration not stated)
i | -0.03 | CCCCCC(=O)NC(=S)Nc1ccc(N2CCCCC2)c(Cl)c1
i | 0.01 | O=C(/C=C/c1ccc(OCCCF)cc1)N1CCOCC1
i | 1.5 | COc1ccc(S(=O)(=O)N2CCC(n3cnc4cc(C(F)(F)F)ccc43)CC2)cc1
i | 0.05 | CC(C)Oc1ccc(-c2nc(NCC3CCCO3)c3ccccc3n2)cc1 (configuration not stated)
i | 0.28 | CC(C)COC(=O)Nc1ccc(C(=O)O)cc1
i | 1.2 | COc1cccc(-c2nc(CS(=O)CC(=O)NCCCOC(C)C)c(C)o2)c1 (configuration not stated)
i | 0.04 | COc1ccc(CCNC(=O)CN2C(=O)NC(CCSC)C2=O)cc1 (configuration not stated)
i | -2.5 | O=C(c1ccco1)N1CCN(C(=S)Nc2cc(F)cc(F)c2)CC1
i | -0.81 | COC(=O)C(C)Sc1nnc(Cc2cc(=O)[nH]c(=O)[nH]2)n1-c1ccc(Cl)cc1 (configuration not stated)
i | -0.54 | Nc1ccc(S(=O)(=O)NC2(C(F)(F)F)NC(=O)N(c3ccccc3Cl)C2=O)cc1 (configuration not stated)
i | 1.8 | Cc1sc2ncnc(N/N=C/c3ccccc3O)c2c1C
i | -0.33 | O=C(COc1ccccc1)Nc1nnc(COc2ccccc2)s1
i | 0.42 | CCOc1ccc(NCCC(=O)c2ccc3c(c2)OCO3)cc1
i | -0.04 | Cc1cc(N2CCN(S(=O)(=O)c3ccccc3)CC2)nc2c(C)cccc12
i | 0.35 | CCOC(=O)CN(C(=O)COc1nc(-c2ccccc2)cc(C)c1C#N)c1ccccc1
i | 0.34 | Cc1cc(C)cc(C(=O)NC(CC(N)=O)c2ccc(NCC3CC3)c([N+](=O)[O-])c2)c1 (configuration not stated)
i | 0.01 | CCC1CCCCN1c1nc(-c2cccc(OC)c2O)nc2ccccc12 (configuration not stated)
i | 0.2 | CCOc1ccc(CCNC(=O)C2CCCN(c3nn4c(=O)cc(C)nc4s3)C2)cc1OCC (configuration not stated)
i | -0.16 | CN1CCC(=NNC(=O)c2ccc(N(Cc3ccccc3Cl)S(C)(=O)=O)cc2)CC1
i | -0.17 | O=C(Cc1ccc([N+](=O)[O-])cc1)NCc1ccccn1
i | 0.77 | CCC(C(=O)NCCCN1CCN(C)CC1)n1nc(C)c2sc3ccccc3c2c1=O (configuration not stated)
i | -1.6 | COc1ccc(NC(=O)Cn2c(=O)n(CCC(=O)NCC3CCCO3)c(=O)c3cc(OC)c(OC)cc32)cc1 (configuration not stated)
i | -0.1 | O=C(OCc1ccccc1)c1ccccc1
i | -0.07 | O=C(NC(Cc1ccccc1)C(=O)O)c1ccco1 (configuration not stated)
i | 0.06 | Cc1cccc(NC(=S)N2CCCC2)c1
i | 1.7 | CCOCCCNC(=O)CCc1nnc2ccc(N3CCCCC3)nn12
i | 0.64 | Cc1cccc(C)c1NC(=S)N(CCCN1CCN(C)CC1)Cc1cccs1
i | -0.82 | C1CCN(CCCNC2C3CC4CC(C3)CC2C4)C1 (configuration not stated)
i | -0.1 | CCOc1ccc(N(C)Cc2cc(=O)oc3ccc(OC)cc23)cc1
i | 0.44 | COc1ccc2cc(C(c3nnnn3Cc3ccc(F)cc3)N3CCCCCC3)c(=O)[nH]c2c1 (configuration not stated)
i | -1.1 | COc1ccc(C2CC(c3ccccc3O)=NN2C(=O)c2ccccc2)cc1OC (configuration not stated)
i | -0.66 | CCOc1ccc(N/C=C/C(=O)c2ccc(OC)cc2)c([N+](=O)[O-])c1
i | -0.57 | CCCCOP(=O)(c1ccc(N(C)C)cc1)C(O)c1ccc(C(C)C)cc1 (configuration not stated)

Among those listed so far, 15 have a Cl atom.
KCNQ2 inh | KCNQ2 inh baseline | SMILES
i | -1.1 | O=C(O)CCCCCN1C(=O)/C(=C\c2ccc(-c3ccc(Cl)cc3)o2)SC1=S
i | 0.17 | NS(=O)(=O)c1ccc(CCNS(=O)(=O)c2ccc(Cl)nc2)cc1
i | -1.9 | Cc1ccc(S(=O)(=O)N(CC(=O)NCc2ccccc2Cl)C(=O)N2CCN(C)CC2)cc1
i | -0.54 | CCN(CC)C(NC(=O)Cc1ccccc1)C(Cl)(Cl)Cl (configuration not stated)
i | -2 | Cc1cc(N2CCN(c3ccccc3Cl)CC2)n2cc(-c3ccccc3)nc2n1
i | 1.6 | S=C(NCCSCc1ccccc1Cl)Nc1ccccc1
i | 0.76 | O=C(CN1CCN(S(=O)(=O)N2CCOCC2)CC1)Nc1cc(Cl)cc(Cl)c1
i | -1.1 | O=C(Cc1ccc(Br)cc1)NNC(=O)Nc1ccc(Cl)cc1
i | -0.94 | COc1ccc(NC(=O)CSc2nnc(CN3CCOCC3)n2-c2ccccc2)cc1Cl
i | -1.1 | Cc1onc(-c2c(Cl)cccc2Cl)c1C(=O)N(C)Cc1ccccc1
i | 0.26 | O=C(NCc1ccccn1)c1ccc(Cl)cc1Cl
i | -0.03 | CCCCCC(=O)NC(=S)Nc1ccc(N2CCCCC2)c(Cl)c1
i | -0.81 | COC(=O)C(C)Sc1nnc(Cc2cc(=O)[nH]c(=O)[nH]2)n1-c1ccc(Cl)cc1 (configuration not stated)
i | -0.54 | Nc1ccc(S(=O)(=O)NC2(C(F)(F)F)NC(=O)N(c3ccccc3Cl)C2=O)cc1 (configuration not stated)
i | -0.16 | CN1CCC(=NNC(=O)c2ccc(N(Cc3ccccc3Cl)S(C)(=O)=O)cc2)CC1

Only part of the results is shown; the hit share may differ from the screen's.
